From PubChem
CBX7 inh – CBX7 inhibition, primary AlphaScreen; O95931; AlphaScreen His6-CBX7 / biotin-H3K27me3 peptide binding; stronger effect = lower value; normalised signal (fraction of DMSO) (no concentration beside the values); actives 1.1% (n = 66,000); AID 1224903; in the data active = normalised signal below about 0.5;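 also: 100 nL library stock added to about 20 µL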
Target sequence (O95931 whole entry, looked up): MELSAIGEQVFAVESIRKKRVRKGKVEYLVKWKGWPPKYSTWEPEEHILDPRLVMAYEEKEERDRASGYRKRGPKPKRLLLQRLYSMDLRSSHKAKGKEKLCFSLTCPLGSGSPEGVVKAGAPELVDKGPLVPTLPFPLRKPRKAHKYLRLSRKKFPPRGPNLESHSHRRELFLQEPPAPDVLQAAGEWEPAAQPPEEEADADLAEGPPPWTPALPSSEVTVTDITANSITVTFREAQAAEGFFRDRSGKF
CBX7 inh z-score – further read-out of CBX7 inh, marked with its call; z-score; measured here: z-score of CBX7 signal; some inactives read as strong as hits; reference of the scale not given here;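 same signal on another scale; lower means less binding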
The depositor's hits bear a star. A portion of the library; count on the stated rates, not on these rows.

Structure	CBX7 inh	CBX7 inh z-score
Cc1ccc(CN2CCN(CC(=O)NCCc3ccc(Cl)cc3)C2=O)cc1	1	1.3
COc1ccc2c(c1)CCC(C1(O)C(=O)Nc3ccccc31)C2=O (configuration not stated)	1	-0.069
CCOc1ccc(C(=O)Nc2ccc(Cl)c(-c3nc4ccccc4[nH]3)c2)cc1Cl	0.97	-0.85
CC(=O)Nc1ccc(Nc2nc(-c3ccccn3)cs2)cc1	0.061*	-19*
COc1ccc(Cc2noc(-c3cccnc3)n2)cc1OC	1.1	1.4
CCC(C)NC(=O)C1CCCN(c2nnc(-n3cccc3)s2)C1 (configuration not stated)	0.99	-0.27
CCN(CC)C(=O)Cn1cnc2sc(C(=O)Nc3ccc(Br)cc3C)c(C)c2c1=O	1	0.18
Cc1oc(-c2ccc(Cl)cc2)nc1C(=O)NCCN1CCCC1	1.1	0.16
Cc1cc(N2CCC(C)CC2)nc2ccc(NC(=O)C(c3ccccc3)C3CCCC3)cc12 (configuration not stated)	1.1	2.1
Cc1oc(-c2ccccc2Cl)nc1CSCC(=O)NCc1cccnc1	1.1	1.1
O=C1CC(C(=O)NC2CCCCC2)(c2ccccc2F)N1CCc1ccccc1 (configuration not stated)	0.95	-1.3
Cc1ccc(NC(=O)c2sc3ncnc(N4CCN(c5ccccn5)CC4)c3c2C)cc1	1	1.1
CC1CCN(C(=O)CN(c2cccc(C(F)(F)F)c2)S(=O)(=O)c2ccccc2)CC1	0.95	-0.73
Cc1ccccc1Cn1nc(C)c(NC(=O)c2cc(C3CC3)on2)c1C	1	1.3
COc1ccc(-c2nc3ccccc3nc2-c2ccccc2)cc1	1.3	9
Cc1ccccc1NC(=O)C1CCN(c2nc3ccccc3[nH]2)CC1	0.97	-0.37
O=C(Nc1ccc(Cl)cc1)C1CCC(CNS(=O)(=O)c2cccc3cccnc23)CC1 (configuration not stated)	0.93	-0.86
CC(=O)Nc1nc(C)c(-c2csc(Nc3cccc(C)c3)n2)s1	0.93	-0.17
COc1ccc(Nc2nnc(C)c(=O)[nH]2)c(OC)c1	1.4	0.78
CC1CCN(S(=O)(=O)c2ccc3ncn(CC(=O)Nc4ccc(F)cc4F)c(=O)c3c2)CC1	1.1	2.8
CCN(CC)CCCNC(=O)CCC(=O)Nc1ccc2nc(N3CCN(C)CC3)cc(C)c2c1	1.1	0.89
COc1ccc(S(=O)(=O)N2CC=C(C(=O)NCc3ccc4c(c3)OCO4)CC2)cc1	1	1.2
COc1ccc2c(c1)CCc1c(C(=O)N3CCN(c4ccc(F)cc4)CC3)noc1-2	0.84	-1.3
COc1ccccc1NC(=O)NCCN1C(=O)C2C3C=CC(C3)C2C1=O (configuration not stated)	1	0.011
COc1ccccc1CC(=O)Nc1ccc(-c2noc(-c3ccccc3OC)n2)cc1	0.93	-0.67
COc1cccc(NC(=O)CSc2nc3nc(C)c(Cc4cccc(Cl)c4)c(C)n3n2)c1	0.96	-0.36
CCCCCn1c(CCCNC(=O)c2ccccc2)nc2ccccc21	1.2	1.6
O=C(Nc1cc(NC(=O)c2ccccc2Br)ccc1Cl)c1ccccc1	1.2	1.6
COCCn1cc(C(=O)N2CCN(c3ccccn3)CC2)c2c3ccccc3n(C)c2c1=O	1	-0.0097
Cn1c2ccccc2c2c(C(=O)N3CCN(c4ccc(F)cc4)CC3)cn(C3CCCCC3)c(=O)c21	0.78	-5.4

An excerpt from above in order of length of the SMILES, descending:
Structure	CBX7 inh	CBX7 inh z-score
CC1CCN(S(=O)(=O)c2ccc3ncn(CC(=O)Nc4ccc(F)cc4F)c(=O)c3c2)CC1	1.1	2.8
CC1CCN(C(=O)CN(c2cccc(C(F)(F)F)c2)S(=O)(=O)c2ccccc2)CC1	0.95	-0.73
COc1ccc2c(c1)CCc1c(C(=O)N3CCN(c4ccc(F)cc4)CC3)noc1-2	0.84	-1.3
Cc1ccc(NC(=O)c2sc3ncnc(N4CCN(c5ccccn5)CC4)c3c2C)cc1	1	1.1
Cc1oc(-c2ccccc2Cl)nc1CSCC(=O)NCc1cccnc1	1.1	1.1
Cc1oc(-c2ccc(Cl)cc2)nc1C(=O)NCCN1CCCC1	1.1	0.16
CC(=O)Nc1ccc(Nc2nc(-c3ccccn3)cs2)cc1	0.061*	-19*

Remaining list, next part
Structure	CBX7 inh	CBX7 inh z-score
COc1ccccc1C1(C)CCc2oc3ccc(C)cc3c2-c2oc(C)cc21 (configuration not stated)	0.94	-1.4
O=C(CC1C(=O)N(c2ccc(F)cc2)C(=O)N1Cc1ccc2c(c1)OCO2)Nc1ccc(Cl)cc1 (configuration not stated)	1.1	2.3
O=C1CN(C(=O)c2ccccc2F)C(c2ccccc2)c2cc(F)ccc2N1 (configuration not stated)	0.96	-0.077
COc1ccccc1CNC(=O)c1cnn2c(C)c3c(nc12)CCCC3	0.95	-1.5
Fc1cc(Br)ccc1-n1nc(-c2ccc(Cl)cc2)cc1-c1ccc(Cl)cc1	0.92	-1.3
CCCCC(=O)N1c2ccccc2NC2=C(C(=O)CCC2)C1c1ccccc1OC (configuration not stated)	1	0.27
Cc1ccccc1-c1nc(CN2CCC(C(=O)NCCCN3CCCC3)CC2)c(C)o1	1.1	5.2
COc1cccc(/C=c2/sc3nc4cc(C)c(C)cc4n3c2=O)c1OC	1	-0.19
Cc1ccc(Nc2c(-c3cccc(Cl)c3)nc3ccccn23)cc1	1.1	0.6
COc1ccc(-c2noc(CCC(=O)NC(C)C)n2)cc1	1.1	1.5
CCN1C(=O)C(Cc2nc3ccccc3c(=O)n2C)c2ccccc21 (configuration not stated)	0.94	-0.77
Cc1cccc(OCc2nn3c(-c4ccccc4)nnc3s2)c1	1.1	2.2
O=C(NCc1ccc2c(c1)OCO2)c1cc(=O)[nH]c2ccc(S(=O)(=O)N3CCOCC3)cc12	0.98	-0.18
CCCC(=O)N1CCC(=O)Nc2ccccc21	1.1	1.5
O=C(NC1CCCCCCC1)c1ccc2c(c1)N(Cc1ccc(F)cc1Cl)C(=O)CS2	1.2	2.4
COc1ccc(CCN2C(=O)CC(C(C)c3ccccc3)C2=O)cc1OC (configuration not stated)	0.87	-1.6
COc1ccc(CCCc2nnc(SCC(=O)Nc3ccccc3F)o2)cc1C	0.88	-1.4
Cc1ccc(C)c(NC(=O)CSc2nccn2-c2ccc(Cl)cc2)c1	0.8	-1.6
Cc1cccc(Nc2nc(N3CCCCC3)ncc2F)c1C	0.75	-1.2
COc1ccc(NC(=O)C2CCN(S(=O)(=O)c3ccc(C)cc3)CC2)cc1	1	1.2
Cc1ccc(Nc2c(-c3ccc(N4CCOCC4)cc3)nc3ncccn23)c(C)c1	1	-0.021
CCOc1ccc(-c2nc(SCC(=O)Nc3nccs3)c(-c3ccccc3)[nH]2)cc1OC	0.96	-0.63
COc1cccc(-n2c(CCC(=O)O)ccc2-c2cccs2)c1	0.83	-3
COc1cc2[nH]c(=O)n(Cc3ccc(C(=O)N4CCN(c5ccccn5)CC4)cc3)c(=O)c2cc1OC	0.99	-0.2
CCCCCCCCCCOc1ccc(NC(=O)Nc2cccc(F)c2)cc1	0.87	-1.5
CCOC(=O)N1CCC(NC(=O)c2nc(-c3ccc(Cl)cc3)oc2C)CC1	0.79	-0.86
COc1ccc(-c2cc(CCCC(=O)Nc3cc(C)cc(C)c3)no2)cc1	0.98	-0.42
Cc1ccc(C(=O)N(Cc2cccs2)C2CCS(=O)(=O)C2)cc1 (configuration not stated)	1.2	2.1
CCOc1ccc(N(CC)C(=O)CCc2nc(-c3ccc(OC)cc3)no2)cc1	0.88	-1.8
CC1CCN(c2nc3ccc(C(=O)NCCCN4CCCCCC4)cc3s2)CC1	1.8	7.1
c1ccc(-c2cnc(SC(c3ccccc3)c3ccccc3)[nH]2)cc1	0.82	-2.8
Cc1cc(C)n(-c2nc3ccccc3nc2N2CCN(Cc3ccccc3)CC2)n1	1.1	3.2
CCOC(=O)N1CCc2c(sc(NCc3ccc(OC)c(OC)c3)c2C(=O)Nc2ccccc2OCC)C1	0.87	-6.6
CCN(CCNC(=O)C(C)N1C(=O)CC(C)(C)Sc2ccccc21)c1ccccc1 (configuration not stated)	0.94	-1.9
CCN(CC)CCNC(=O)c1c(O)c2ccccc2n(CC)c1=O	1.1	1.1
O=C(C1CC1)N1CCc2cc(S(=O)(=O)Nc3ccc(F)c(F)c3)ccc21	0.96	-1.2
CCc1ccccc1Nc1cc(C(=O)NCC2COc3ccccc3O2)c2ccccc2n1 (configuration not stated)	1.2	2.4
COc1ccc(Cl)cc1N1C(=O)c2nccnc2C1=O	1	0.5
Cc1ccc(-c2cn(-c3cccc(C(F)(F)F)c3)c(=O)[nH]2)cc1	0.93	-1.6
O=C(CSc1nnc(-c2ccc(F)cc2)o1)N1CCN(c2ccccc2)CC1	0.94	-0.13
Cc1cccc(N2CCN(C(=O)C3CCC(=O)N3C3CCCCC3)CC2C)c1 (configuration not stated)	0.99	-0.66
O=C(Cn1nnc(-c2ccccc2F)n1)NCCc1ccccc1	1.1	0.66
Cc1onc(-c2c(Cl)cccc2Cl)c1C(=O)NCC1CCCO1 (configuration not stated)	1	-0.021
COc1ccc2c(c1)c(=O)c(S(=O)(=O)c1ccccc1)cn2CC(=O)Nc1ccc(C)c(Cl)c1	0.83	-2.4
COC(=O)c1c(NS(=O)(=O)Cc2ccccc2)sc2c1CCCC2	1.1	2.2
COc1ccc(CCNc2oc(COc3ccc(F)cc3)nc2C#N)cc1OC	0.55	-8.2
CCOc1ccc(-c2cn(-c3cccc(CC)c3)c(=O)[nH]2)cc1Cl	0.95	-1.3
COc1cc(-c2nc(Nc3cccc(F)c3)c3ccccc3n2)cc(OC)c1OC	0.82	-2.6
Cc1ccc(CNC(=O)CN2C(=O)COc3ccc(S(=O)(=O)N4CCOCC4)cc32)cc1	1.1	1.7
Cn1nccc1C(=O)Nc1ccccc1C(=O)O	1.1	1.2
O=C(c1cc(-c2ccncc2)nc2ccccc12)N1CCCC1	1.3	3.8
Cc1ccc2nc(-c3ccc(N4CCOCC4)cc3)c(Nc3ccccc3C)n2c1	0.86	-1.4
Cn1ncc(Cl)c1C(=O)Nc1ccc2nc(-c3ccccc3)[nH]c2c1	0.97	-0.78
COc1ccc(C(C(=O)NC2CCCCC2)N(Cc2ccccc2)c2ccccc2)cc1 (configuration not stated)	1	1.7
COc1ccccc1NC(=O)c1cc2c(n(-c3ccc(C)cc3)c1=O)CCCC2=O	0.92	-0.26
CC(C)OCCCNC(=O)c1ccc2c(c1)N(Cc1ccccc1)C(=O)c1ccccc1S2=O (configuration not stated)	0.97	-0.6
CC1CCN(S(=O)(=O)c2ccc3ncn(CC(=O)N4CCCC(C)C4)c(=O)c3c2)CC1 (configuration not stated)	1	0.4
O=C(CCCNS(=O)(=O)c1ccc2c(c1)CCC(=O)N2)NCc1ccc2c(c1)OCO2	1.1	2.9
Cc1ccc(-c2noc(CN(C(=O)C(c3ccccc3)c3ccccc3)C(C)C)n2)cc1	0.88	-1.2
CC1CC(C)CN(S(=O)(=O)c2ccc3c(c2)N(CC(=O)N2CCCCC2)C(=O)CO3)C1 (configuration not stated)	0.99	-0.26

The list continues.
Structure	CBX7 inh	CBX7 inh z-score
CC1CCCCN1CC(=O)Nc1ccc(Oc2ccccc2)cc1 (configuration not stated)	0.98	-0.56
O=C(Nc1nc(-c2ccc(S(=O)(=O)N3CCCCCC3)cc2)cs1)c1cccs1	0.96	-0.042
O=C(NCCN1CCN(c2ccccc2F)CC1)c1cc2c(s1)-c1ccccc1OC2	1.1	1.4
COc1ccc(NC(=O)c2cc3c(C)nn(-c4ccccc4)c3s2)c(OC)c1	1.1	0.11
Cc1ccc(NC(=O)C2CCCN2S(=O)(=O)c2cccc3cccnc23)cc1Cl (configuration not stated)	0.93	-2.2
CCCCCn1c(C(C)NC(=O)c2ccccc2)nc2ccccc21 (configuration not stated)	0.93	-1.7
CCn1c(COc2ccc(C)cc2)nc2ccccc21	1	1
COc1ccc(Cl)cc1NS(=O)(=O)c1ccc2[nH]c(=O)c(=O)[nH]c2c1	1	0.0024
O=C(Cc1c(C(=O)O)[nH]c2ccc(Cl)cc12)NCC1COc2ccccc2O1 (configuration not stated)	1	0.63
CCOc1ccc(NC(=O)C(Cc2ccccc2)NS(=O)(=O)c2ccc3c(c2)CCC(=O)N3)cc1 (configuration not stated)	0.97	-0.66
CC1(C)Cc2c(C#N)c(NCCCO)nc(-c3ccccc3)c2CO1	1	1.4
Nc1cc(-c2nc3ccccc3[nH]2)n[nH]c1=O	0.64	-4.3
O=C1CN(C(=O)C2CC2)C(c2ccccc2)c2cc(Cl)ccc2N1 (configuration not stated)	0.97	-0.88
CCC(C)NC(=O)C1CCN(S(=O)(=O)c2cnc[nH]2)CC1 (configuration not stated)	1	-0.16
Cc1oc(-c2cccc(Cl)c2)nc1CN1CCCC(C(=O)NCc2ccc3c(c2)OCO3)C1 (configuration not stated)	0.81	-2.2
Cc1sc(NC(=O)c2ccccc2)nc1-c1ccc(-c2ccccc2)cc1	0.86	-2.3

Grouped by structure, the compounds so far with a cyano group (2)
Structure	CBX7 inh	CBX7 inh z-score
COc1ccc(CCNc2oc(COc3ccc(F)cc3)nc2C#N)cc1OC	0.55	-8.2
CC1(C)Cc2c(C#N)c(NCCCO)nc(-c3ccccc3)c2CO1	1	1.4

Given with two lines to a compound: 3 of the compounds above.
Each structure is followed by: CBX7 inh, CBX7 inh z-score
- CCCCCn1c(C(C)NC(=O)c2ccccc2)nc2ccccc21 (configuration not stated)
  0.93, -1.7
- CCn1c(COc2ccc(C)cc2)nc2ccccc21
  1, 1
- COc1ccc(Cl)cc1NS(=O)(=O)c1ccc2[nH]c(=O)c(=O)[nH]c2c1
  1, 0.0024
